# Compound activity (PubChem)
# LASV entry inh: Lassa virus entry inhibition | Lassa virus pseudotype entry inhibition, cell reporter; control for the full effect not named in the record | Potency, µM (series often up to 37.9 µM), for inactives: at the highest dose activity change, negative = inhibition, usual class: inhibitors | 300,000 compounds, 1.2% hits | AID 540256; active means well fitted inhibition curve with a large enough effect; inconclusive means small, poorly fitted or top-dose-only effect, or effect the other way; inactive means flat fitted curve, though single readings scatter; tested in HEK293 cells; note: % is set by controls: 0 for no effect and ±100 for the full control effect; nearly all actives have a fitted effect of over 50% in size; luciferase read-out
# Cruzain noTriton: inhibitors of Trypanosoma cruzi cruzain without detergent; P25779; purified cruzain, Z-FR-AMC fluorescence, no detergent; Potency, µM, inactives show max response, negative = inhibition, usual class: inhibitors; 200,000 compounds, 2.3% hits; AID 1476;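 note: plate controls were enzyme without inhibitor for no effect and buffer without enzyme for full effect; nearly all actives have a fitted effect of over 40% in size; top concentration of the series not given in the record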
# Target sequence (P25779 123-467 limits assumed): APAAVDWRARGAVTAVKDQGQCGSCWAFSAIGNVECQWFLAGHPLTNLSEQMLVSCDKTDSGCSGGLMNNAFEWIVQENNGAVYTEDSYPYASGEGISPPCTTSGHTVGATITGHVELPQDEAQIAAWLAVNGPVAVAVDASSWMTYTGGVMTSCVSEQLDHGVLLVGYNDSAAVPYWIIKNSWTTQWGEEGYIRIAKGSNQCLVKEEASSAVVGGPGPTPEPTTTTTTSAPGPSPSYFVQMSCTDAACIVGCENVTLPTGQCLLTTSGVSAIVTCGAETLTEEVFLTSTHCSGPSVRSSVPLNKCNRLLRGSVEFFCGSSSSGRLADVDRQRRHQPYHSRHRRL
#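 Detergent-free condition (0.00005% Triton X-100) in acetate buffer pH 5.5 with DTT. 1.5 nM enzyme and compound were pre-mixed 15 min, then 2 uM Z-FR-AMC substrate added; reaction progress from fluorescence change between first and third reads (60 s).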
# NS1 inh: influenza NS1 inhibition | Potency, µM (highest dose often 46.1 µM), without a hit: at the top dose activity, positive = more growth | 270,000 compounds, 0.4% hits | S. cerevisiae slowed by influenza A NS1, growth recovery by OD600; active means well fitted rising curve with a large enough effect; inconclusive means small, poorly fitted or top-dose-only effect; inactive means no such curve, though single readings can be large or run the other way; note: nearly all actives have a fitted effect of over 50% in size
#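 Read-out: OD600 growth recovery of NS1-expressing budding yeast. Cells grown overnight at 30C in -URA glucose medium, washed, resuspended and diluted 1:100 in 2% galactose assay medium, pH 6.0. Same strain lacking NS1 served as positive control.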
# Cruzain inh Det: cruzain (T. cruzi) inhibition with detergent. Potency, µM, for the others: max response, negative = inhibition, usual class: inhibitors. AID 1478. P25779. 200,000 compounds, 0.43% hits. purified cruzain, Z-FR-AMC fluorescence, 0.01% Triton;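 note: plate controls were neutral wells for no effect and buffer without enzyme for full effect; nearly all actives have a fitted effect of over 40% in size; top concentration of the series not given in the record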
#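 Z-FR-AMC hydrolysis (2 uM substrate) by cruzain (1.5 nM) monitored kinetically at ex 360/em 450 nm after 15 min room-temperature compound exposure; 0.01% Triton X-100, pH 5.5, 5 mM DTT.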
# MARV entry inh: inhibitors of Marburg virus binding or cell entry; Marburg virus pseudotyped entry inhibition, cell reporter; control for the full effect not named in the record; about a third of the inactives were read at about 46 µM; Potency, µM (doses to about 37.8 µM), for inactives: at the highest dose activity change, negative = inhibition, most hits filed as inhibitors; 300,000 compounds, 1.8% hits; AID 540276; active = well fitted inhibition curve with a large enough effect; inconclusive = small, poorly fitted or top-dose-only effect, or effect the other way; inactive = flat fitted curve, though single readings scatter; tested in HEK293 cells; about a fifth of its hits are not listed in these tables; note: % is set by controls: 0 for no effect and ±100 for the full control effect; luciferase read-out
# 2A StopGo: lowers the luciferase signal of an FMDV 2A StopGo reporter | human cells with a luciferase reporter of 2A StopGo recoding; control for the full effect not named in the record | Potency, µM (doses to about 57.9 µM), inactives show top-dose signal change, negative = less light | 410,000 compounds, 1.2% hits | AID 1159524; active = well fitted falling curve with a large enough effect; inconclusive = small, poorly fitted or top-dose-only effect; inactive = no such curve, though single readings can be large or run the other way; tested in HEK293T cells; note: % is set by controls: 0 for no effect and ±100 for the full control effect; nearly all actives have a fitted effect of over 45% in size; luciferase light after 4 h
# RE007 growth inh: less growth of the S. pombe RE007 Vpr strain | S. pombe RE007 Vpr strain, BacTiter-Glo ATP luminescence, 24 h; control for the full effect not named in the record | Potency, µM (titrated, usually from 92.2 µM), for inactives: top-dose activity change, negative = less growth | 360,000 compounds, 0.21% hits; active = well fitted falling curve with a large enough effect; inconclusive = small, poorly fitted or top-dose-only effect; inactive = no such curve, though single readings can be large or run the other way;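 note: % is set by controls: 0 for no effect and ±100 for the full control effect; nearly all actives have a fitted effect of over 50% in size; the assay follows cell death caused by Vpr and the record does not say whether a fall means rescue or toxicity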
#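 Fission yeast RE007 carrying one integrated HIV-1 vpr copy, seeded at OD 0.01 in PMG+AL medium with 23 nL pinned compound. Grown 24 h at 30 degrees; viability read by BacTiter-Glo luminescence after 5 min.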
# SARS PLP yeast: blocks SARS-CoV papain-like protease in a yeast assay. AID 485353. Potency, µM (highest dose often 32.9 µM), inactives show top-dose activity, positive = growth rescue. 330,000 compounds, 0.19% hits. S. cerevisiae expressing SARS-CoV PLpro, growth rescue; control for the full effect not named in the record; active means well fitted rising curve with a large enough effect; inconclusive means small, poorly fitted or top-dose-only effect; inactive means no such curve, though single readings can be large or run the other way; note: 0% is about no effect; nearly all actives have a fitted effect of over 55% in size; growth read by luminescence after 48 h
# * hit, by the source's call; ? = inconclusive; . = no result given; & = joins results of further samples; [ ] = dose if it differs, or a comment. Unless noted, calls come from the whole dose curve; as a rule, active = well fitted curve in the direction sought with a large enough effect; inconclusive = small, poorly fitted or top-dose-only effect, or another doubt; inactive = no such curve, though single readings can be large; an effect the other way counts as inactive or inconclusive. Potency is the fitted concentration of half-maximal effect.
# Start of the data: the first twelve compounds, ahead of the listing:
SMILES,LASV entry inh,Cruzain noTriton,NS1 inh,Cruzain inh Det,MARV entry inh,2A StopGo,RE007 growth inh,SARS PLP yeast
CCOc1ccc(C(=O)Nc2ccc3c(c2)OCO3)cc1OCC,3%,1%,4%,-2.2%,-14%,14%,3%,1%
COc1cc(/C=N/NC(=O)c2ccncc2)cc2c1OCO2,.,.,10%,.,.,-16%,-4%,2%
Nc1cc(=O)[nH]c(SCc2nnnn2-c2ccc(Cl)cc2)n1,-2%,1%,?,-2.1%,?,-16%,24%,10%
COc1ccc(S(=O)(=O)N2CCOCC2)cc1NC(=O)c1cccc(Cl)c1,.,.,10%,.,.,23%,-2%,2%
Cc1ccc(N2C(=O)NC(=O)C3(Cc4ccccc4N4CCN(c5ccccc5)CC43)C2=O)cc1 (stereo unspecified),-4%,?,12%,-14%,-27%&-27%,55%[activator],23%,-7%
O=C1Cc2ccccc2C(c2ccccc2)N1 (stereo unspecified),6%,1%,4%,5.0%,6%,.,5%,2%
COc1cccc(/C=C/c2nc(C#N)c(N(C)Cc3ccccc3)o2)c1,?,-10%,.,-3.6%,-8%[46.1 µM],-21%,.,.
Cc1cc(C)c(NC(=O)COC(=O)C2CCCO2)c(C)c1 (stereo unspecified),-4%[46.1 µM],.,.,.,7%[46.1 µM],-10%,2%,1%
C[C@@H]1CC=C[C@H]2[C@H]1C(=O)N(Cc1ccccc1)[C@H]2c1ccc(-c2cc3ccccc3s2)cc1F,.,.,5%,.,.,41%[activator],14%,1%
CCOC(=O)c1c(C)nn(-c2ncccc2NC(=O)NC(C)C)c1C,-2%,.,2%,.,-1%,3%,1%,0%
Cn1c(SCC(=O)N2c3ccccc3CCc3ccccc32)nnc1-c1cc2ccccc2cc1O,-15%,?,?,-4.6%,?,0%,6%,7%
CCOC(=O)CSc1nc(NC#N)nc(N(CC)CC)n1,12%,?,1%,-14%,6%&6%,-22%,2%,?

# The whole of this part, previewed entries included:
SMILES,LASV entry inh,Cruzain noTriton,NS1 inh,Cruzain inh Det,MARV entry inh,2A StopGo,RE007 growth inh,SARS PLP yeast
CCOc1ccc(C(=O)Nc2ccc3c(c2)OCO3)cc1OCC,3%,1%,4%,-2.2%,-14%,14%,3%,1%
COc1cc(/C=N/NC(=O)c2ccncc2)cc2c1OCO2,.,.,10%,.,.,-16%,-4%,2%
Nc1cc(=O)[nH]c(SCc2nnnn2-c2ccc(Cl)cc2)n1,-2%,1%,?,-2.1%,?,-16%,24%,10%
COc1ccc(S(=O)(=O)N2CCOCC2)cc1NC(=O)c1cccc(Cl)c1,.,.,10%,.,.,23%,-2%,2%
Cc1ccc(N2C(=O)NC(=O)C3(Cc4ccccc4N4CCN(c5ccccc5)CC43)C2=O)cc1 (stereo unspecified),-4%,?,12%,-14%,-27%&-27%,55%[activator],23%,-7%
O=C1Cc2ccccc2C(c2ccccc2)N1 (stereo unspecified),6%,1%,4%,5.0%,6%,.,5%,2%
COc1cccc(/C=C/c2nc(C#N)c(N(C)Cc3ccccc3)o2)c1,?,-10%,.,-3.6%,-8%[46.1 µM],-21%,.,.
Cc1cc(C)c(NC(=O)COC(=O)C2CCCO2)c(C)c1 (stereo unspecified),-4%[46.1 µM],.,.,.,7%[46.1 µM],-10%,2%,1%
C[C@@H]1CC=C[C@H]2[C@H]1C(=O)N(Cc1ccccc1)[C@H]2c1ccc(-c2cc3ccccc3s2)cc1F,.,.,5%,.,.,41%[activator],14%,1%
CCOC(=O)c1c(C)nn(-c2ncccc2NC(=O)NC(C)C)c1C,-2%,.,2%,.,-1%,3%,1%,0%
Cn1c(SCC(=O)N2c3ccccc3CCc3ccccc32)nnc1-c1cc2ccccc2cc1O,-15%,?,?,-4.6%,?,0%,6%,7%
CCOC(=O)CSc1nc(NC#N)nc(N(CC)CC)n1,12%,?,1%,-14%,6%&6%,-22%,2%,?
COc1cc2c(cc1OC)CN(c1ccc3ccccc3n1)CC2,28%,.,-12%,.,-19%[46.1 µM],-23%,-10%,-21%
COc1ccc(/C=N/NC(=O)c2cccnc2)cc1O,-4%,.,-5%,.,.,37%[activator],-11%,3%
CC(=O)Nc1ccc(NC(=O)C(C)OC(=O)CCC2CCCC2)cc1 (stereo unspecified),2%,.,.,.,19%[46.1 µM],-16%,4%,-1%
Cn1cccc1CC(=O)N/N=C/c1ccco1,0%,.,8%,.,3%[46.1 µM],-3%,11%,-2%
C=CCn1c(COc2cccc3ccc(C)nc23)nnc1SCC(N)=O,14%,-6%,-1%,1.0%,27%[46.1 µM],-16%,-2%,4%
COc1ccc(C(=O)NCCS(=O)(=O)NCCc2ccccc2)cc1,19%,.,.,.,-1%[46.1 µM],40%[activator],0%,-1%
O=C(CCCc1c[nH]c2ccccc12)NCC1COc2ccccc2O1 (stereo unspecified),-12%,.,.,.,?,-15%,-3%,-3%
CC1C=CCC2C(=O)N(c3ccccc3OC(=O)c3ccco3)C(=O)C12 (stereo unspecified),.,.,2%,.,.,-5%,-4%,0%
Cc1cccc(NC(=O)c2cccc(Cn3cc(Br)c([N+](=O)[O-])n3)c2)c1C,?,11%,5%,-5.2%,?,?,27%,-3%
COc1ccc(SC[C@H](CC(C)C)N2CCN(C)CCC2=O)cc1,.,.,4%,.,.,60%[activator],-1%,0%
Cc1cc(C)nc(NS(=O)(=O)c2ccc(NC(=O)c3ccc4c(c3)OCCO4)cc2)n1,6%,.,0%,.,2%[46.1 µM],0%,18%,1%
O=C(CCCCCn1c(=S)[nH]c2ccc(N3CCOCC3)cc2c1=O)NC1CCN(Cc2ccccc2)CC1,2%,.,.,.,?,?,11%,-4%
CCOC(=O)C1(C)/C(=N/Nc2ccccc2Cl)C(=O)C(=O)N1c1ccccc1 (stereo unspecified),12%,7%,5%,-11%,0%,-2%,10%,5%
Cc1ccc(/C=C/C(=O)Nc2ccc3nc(N4CCC(C)CC4)cc(C)c3c2)cc1,2%[46.1 µM],4%,.,-2.3%,2%[46.1 µM],?,.,.
O=C(Cn1cnc2c(oc3ccccc32)c1=O)N1CCCc2ccccc21,3%,-3%,-14%,-1.5%,-1%,17%,9%,17%
COc1ccc(C2=NN(C(=O)CSc3ncccn3)C(c3cccc(OC)c3OC)C2)cc1 (stereo unspecified),?,.,.,.,?,-7%,-2%,-7%
CCOC(=O)c1sc(SCC(=O)Nc2ccc(N(C)C)cc2)nc1N,?,-5%,-8%,-7.1%,-18%,25%,?,-12%
Cc1ccc(C(C(=O)NC2CCCCC2)N(Cc2cccnc2)C(=O)c2csnn2)cc1 (stereo unspecified),-20%,.,1%,.,5%[46.1 µM],-4%,7%,-6%
O=C1c2ccccc2C(=O)N1OS(=O)(=O)c1ccccc1,5%,7.9µM*,21%,?,2%,.,.,-14%
O=C(CSc1nnnn1-c1ccccc1)Nc1ccc(Cl)cn1,?,-19%,-8%[9.22 µM],4.8%,-23%,-11%,4%,-1%
COc1ccc(NC(=O)c2ccccc2-c2ccc(C(F)(F)F)cc2)cc1S(=O)(=O)N1CCOCC1,?,?,16%,-5.7%,-38%,41%[activator],16%,3%
COc1cccc(N2CC(NC(=O)Cc3cccs3)CC2=O)c1 (stereo unspecified),-23%[46.1 µM],10%,.,0.0%,.,-10%,.,.
CC(C)(C)c1cc(C(=O)N/N=C/c2ccc(O)cc2)n(-c2ccccc2)n1,?,-1%,0%,-7.2%,?,-22%,9%,16%
CCCn1nnnc1NCc1ccc(N(CC)CC)cc1,.,.,6%,.,.,-15%,4%,-4%
COc1ccc2cc3cc(C(=O)Nc4ccc5c(c4)OCO5)oc3nc2c1,1%,5%,-3%,1.3%,-5%,-45%,-11%,-12%
COc1ccc(NC(=O)NCc2ccncc2)c(OC)c1,-3%,-3%,-4%,1.7%,?,14%,-10%[3.69 µM],1%
O=C(CN1C(=O)c2ccc([N+](=O)[O-])cc2C1=O)Nc1ccccc1N1CCCC1,0%,.,.,.,0%[46.1 µM],16%,2%,0%
Nc1cc(N)nc(CS)n1,.,.,3%,.,.,-8%,9%,0%

# Not a retest: an excerpt of the list.
SMILES,LASV entry inh,Cruzain noTriton,NS1 inh,Cruzain inh Det,MARV entry inh,2A StopGo,RE007 growth inh,SARS PLP yeast
O=C1c2ccccc2C(=O)N1OS(=O)(=O)c1ccccc1,5%,7.9µM*,21%,?,2%,.,.,-14%
O=C(CSc1nnnn1-c1ccccc1)Nc1ccc(Cl)cn1,?,-19%,-8%[9.22 µM],4.8%,-23%,-11%,4%,-1%

# New compounds follow
SMILES,LASV entry inh,Cruzain noTriton,NS1 inh,Cruzain inh Det,MARV entry inh,2A StopGo,RE007 growth inh,SARS PLP yeast
S=c1nc(NCCc2ccccc2Cl)c2ccccc2[nH]1,?,.,-3%,.,?,54%[activator],1%,1%
N#CC(CCc1ccc([N+](=O)[O-])cc1)(CCc1ccc([N+](=O)[O-])cc1)C(N)=O,-9%[46.1 µM],.,.,.,?,?,-9%,.
COc1ccc(CN2CCCC(N3CCc4ccccc4C3)C2)c(O)c1 (stereo unspecified),.,.,7%,.,.,-4%,-4%,1%
Cc1cccc(-c2sc(Nc3ccccc3)n[n+]2-c2ccc(F)cc2)c1,.,.,-2%,.,.,18%,-6%,-3%
O=C(Cc1n[nH]c(=O)c2ccccc12)Nc1cc(Cl)ccc1-n1cncn1,0%,.,.,.,6%[46.1 µM],4%,-9%,6%
Cc1cc(Cl)cc(Cl)c1OCCOCCN(C)C,3%,-1%,-2%,-0.3%,?,-10%,.,0%
COc1ccc(C(=O)NCC(=O)N2CCN(C(=O)c3ccco3)CC2)cc1,3%,.,4%,.,4%[46.1 µM],-12%,-6%,?
CCC(C(=O)OCC(=O)Nc1cc(C)ccc1OC)c1ccccc1 (stereo unspecified),?,.,.,.,-5%[46.1 µM],0%,12%,-2%
N/C(=N\OC(=O)Cc1ccccc1)c1ccc([N+](=O)[O-])cc1,13%,-10%,-6%,-2.0%,-4%,-6%,-19%,-2%
COc1ccc(S(=O)(=O)N2CCOC2CNC(=O)C(=O)NCCc2ccccc2OC)cc1 (stereo unspecified),.,.,-5%,.,.,0%,7%,-3%
